# VDR inhibitor – blocks the human vitamin D receptor; P11473; VDR-SRC2-3 peptide fluorescence polarization, 2 h; Potency, µM, for inactives: max response, negative = inhibition, most hits filed as inhibitors; 400,000 tested, 0.93% active; AID 504847; active = well fitted inhibition curve with a large enough effect; inconclusive = small, poorly fitted or top-dose-only effect, or another doubt; inactive = no such curve, though single readings can be large or run the other way; also: series mostly up to about 120 µM
# Target sequence (P11473 whole entry, looked up): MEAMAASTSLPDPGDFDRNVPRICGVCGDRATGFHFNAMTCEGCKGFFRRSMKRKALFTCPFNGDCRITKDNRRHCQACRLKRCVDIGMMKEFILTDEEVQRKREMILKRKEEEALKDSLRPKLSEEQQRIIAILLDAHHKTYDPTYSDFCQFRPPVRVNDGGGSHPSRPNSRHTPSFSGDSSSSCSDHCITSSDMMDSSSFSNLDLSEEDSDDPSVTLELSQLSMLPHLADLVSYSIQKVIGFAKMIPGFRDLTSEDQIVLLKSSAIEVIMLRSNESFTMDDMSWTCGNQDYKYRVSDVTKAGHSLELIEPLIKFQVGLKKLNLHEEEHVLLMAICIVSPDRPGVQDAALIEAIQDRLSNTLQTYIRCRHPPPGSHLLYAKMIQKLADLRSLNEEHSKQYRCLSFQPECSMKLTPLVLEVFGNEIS
#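 Inhibition of the VDR/SRC2-3 peptide interaction is quantified by fluorescence polarization. Compounds (23 nl, pintool) incubate with the reagents for 2 hours at ambient room temperature.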
# An asterisk follows results filed as active; u = inconclusive. % is scaled to controls: 0 for no effect and ±100 for the full control effect; potency is read from the fitted curve at half-maximal effect. A portion of the library; count on the stated rates, not on these rows.
SMILES,VDR inhibitor
Cc1cnc(NC(=O)CSc2ccc(Cl)cc2)s1,-2.6%
COc1ccc(C(CNC(=O)C2CC(=O)N(Cc3ccccc3)C2)N2CCOCC2)cc1 (stereo unspecified),14.7%
CCOC(=O)c1sc(=S)n(C)c1NC(=O)c1ccc(OC)cc1,50.1µM*
Oc1ccc(Nc2nc(-c3ccc(Cl)cc3)cs2)cc1,-26.8%
O=C(CSc1n[nH]c(-c2ccncc2)n1)c1cccc([N+](=O)[O-])c1,12.5%
O=C(NCCc1ccc(Cl)cc1)C1CCCN1C(=O)NCc1ccccc1 (stereo unspecified),-14.5%
Cc1ccccc1Nc1nc(N)nc(CN(C)Cc2ccccc2Cl)n1,-5.1%
CC1C/C(=C/c2cccs2)C(=O)/C(=C/c2cccs2)C1 (stereo unspecified),4.5%
C#CCNc1ccc(C(=O)OCC)cc1,-6.3%
COc1ccc(S(=O)(=O)N/N=C(/C)c2ccc(C)o2)cc1,8.5%
CC(=O)c1cnc(N(C)C)s1,6.0%
Cc1cc(N)n2nc(C)c(-c3ccc(Cl)cc3)c2n1,-25.0%
Cc1ccc(-c2nnc(Nc3cccc(Cl)c3)c3ccccc23)cc1S(=O)(=O)NCC1CCCO1 (stereo unspecified),-21.7%
CCC(C)[C@H](NC(=O)NCCC1=CCCCC1)C(=O)O (stereo partly specified),u
Cc1ccc(C)c(NC(=O)CSc2nnc(-c3cc(C)[nH]n3)n2N)c1,16.4%
CCNC(=O)NC(=O)C(C)OC(=O)c1ccc(SC)cc1OC (stereo unspecified),13.6%
CC(=O)N1CCN(c2ccccc2NC(=O)COc2ccc(Br)cc2)CC1,10.5%
CC(C)(C)NC(=O)CSc1nncn1-c1ccccc1,-5.6%
O=C(Nc1cccc(S(=O)(=O)Nc2ccc(Cl)cc2)c1)c1ccc[n+]([O-])c1,8.9%
Cc1c(C(=O)N(C)Cc2ccc(OC(F)F)cc2)oc2ccccc12,3.2%
O=C(NCCNCc1ccccn1)c1ccco1,-3.3%
Cc1nn(CC(=O)N2CCCCCC2)c(=O)c2cc3occc3n12,-12.1%
CCOC(=O)c1cc2c(ccn2C)n1Cc1ccc(Cl)cc1,2.8%
O=C1ON=C(c2ccc([N+](=O)[O-])cc2)/C1=C/c1ccccc1O,79.4µM*
CCc1cccc(OCC(=O)N(C)CC(=O)Nc2cccc(F)c2)c1,-5.6%

# Later entries.
SMILES,VDR inhibitor
COCC(=O)c1[nH]c2ccccc2c1C,-11.3%
CCOc1ccc(C(=O)NCC(=O)OCC(=O)Nc2ccccc2OC)cc1,-0.4%
CCOC(=O)c1c(COc2ccccc2)oc2ccc(O)cc12,-1.4%
N#C/C(=C(/O)COc1ccc(Br)cc1)c1nnc2n1CCCCC2,-4.7%
CC(=O)CC(C)(C)S(=O)(=O)c1ccc(NC(C)=O)cc1,-13.2%
O=C(NC(=O)c1ccccc1N1CCCCC1)Nc1ccc(Br)cc1,2.6%
COc1ccc(NC(=O)NCCN2CCN(c3ccc(C)cc3)CC2)c(Cl)c1,-7.4%
Cc1ccc2[nH]c3c(c2c1)CNCC3,3.9%
Cc1cc(OCC(=O)Nc2ccncc2)cc(C)c1Br,5.7%
O=C(O)c1ccc(N2CCN(c3ccc(Cl)cc3)CC2)c([N+](=O)[O-])c1,-5.4%
Cc1ccc(C(=O)CC2(O)C(=O)N(Cc3ccccc3)c3ccc(Br)cc32)cc1 (stereo unspecified),-11.3%
COc1ccc(C2C3CCCCC3(O)CCN2C(=O)c2cccs2)cc1 (stereo unspecified),2.4%
COc1ccccc1CNS(=O)(=O)CCNC1CCCCC1,-6.6%
CC(C)(C)OC(=O)C[C@@H]1C/C=C\C[C@H](CC(=O)N(CCO)Cc2ccccc2)C(=O)NC[C@@H](c2ccccc2)OC1=O,-1.9%
COc1ccc(NC(=O)CSc2nc(-c3ccc(OC)cc3)[nH]c2-c2ccc(F)cc2)cc1,-1.2%
COc1ccc(-c2cc(C)no2)cc1S(=O)(=O)Nc1cccc(C)c1,11.8%
Cc1nonc1OCCNCCNc1ccc([N+](=O)[O-])cc1Cl,-8.7%
Cc1sc(N)c(C(=O)c2cccc(C(F)(F)F)c2)c1C,25.1µM*
COc1ccc(CNc2ncnc3c2[nH]c2cc(OC)c(OC)cc23)cc1,1.9%
N#Cc1ccc(C(=O)N2CCN(S(=O)(=O)c3ccc(Br)s3)CC2)cc1,-12.1%
CC(SC1=NCCN1S(=O)(=O)c1ccc(F)cc1)c1ccccc1 (stereo unspecified),-4.2%
COc1ccccc1/C=N/N1CCN(c2ccc(Cl)cc2)CC1,-1.2%
Cc1coc2cc3oc(=O)c(CC(=O)NCCc4ccccc4)c(C)c3cc12,14.0%
CCc1ccc(CN2CCCC(CNS(=O)(=O)c3ccc(OC)cc3)C2)cc1 (stereo unspecified),-25.3%
Cc1c(/C=N/Nc2nc3ccccc3[nH]2)c2ccccc2n1C,5.2%

# The listing continues:
SMILES,VDR inhibitor
COC(=O)C1=C(C)N(Cc2ccccc2)C(=NCc2ccc(OC)cc2)N[C@H]1c1cccc(F)c1,0.3%
CCn1cc(C2C(C(=O)Nc3ccc(Br)cn3)=C(C)NC3=C2C(=O)CCC3)c(C)n1 (stereo unspecified),-10.3%
S=C(NCc1ccccn1)Nc1ccc(Cl)cc1Cl,-3.4%
CCOC(=O)C1=C(C)NC(C)=C(C(=O)OCC)C1C(=O)OCC(=O)NCc1ccccc1,-16.7%
C#CCCc1ccccc1/C=[N+](/C)[O-],7.6%
O=P(O)(Cc1ccccc1)Cc1ccccc1,1.8%
Fc1ccc(C2CC(c3ccco3)n3ncnc3N2)cc1 (stereo unspecified),-21.3%
O=C(CN1CCN(c2ccc(F)cc2)CC1)N(C1CCCC1)C1CCS(=O)(=O)C1 (stereo unspecified),1.4%
Cc1csc(SC(C)C(=O)NC2CCCCC2C)n1 (stereo unspecified),6.3%
COc1ccc(CNc2nc3nc4c(c(=O)n3[nH]2)CCC4)cc1,10.2%
CCN1CCN(c2nc(-c3ccccc3)nc3ccccc23)CC1,5.4%
COc1ccc(CNc2nc(S(=O)(=O)c3ccccc3)c(Cl)s2)cc1OC,1.2%
CCOC(=O)c1ccccc1-n1c(C)cc(C2N=C(N)Nc3nc4ccccc4n32)c1C (stereo unspecified),10.6%
Cc1cccc(N(C)C(=O)c2cc(S(=O)(=O)N3CCc4ccccc43)cn2C)c1,2.8%
COCCn1c(=O)c(-c2cccs2)nc2cnc(Nc3ccccc3)nc21,8.7%
O=C(NCc1cccs1)c1cc(-c2ccccc2)on1,0.9%
CNc1ccc(Br)cc(C(=O)/C=C/c2ccc3c(c2)OCO3)c1=O,79.4µM*
CC(C)CNC(=O)COC(=O)c1c2c(nc3ccccc13)/C(=C\c1cccs1)CC2,-0.7%
CCc1cc(=O)[nH]c(SCC(=O)N2CCOCC2)n1,3.2%
COc1ccc(NC(=S)N2CCOCC2)c(OC)c1,-5.2%
COc1ccc(CN(CCc2ccccc2)Cc2ccccc2)cc1OC,7.7%
O=C1CCC(=O)N1c1ccc(-c2nc3ccccc3s2)cc1,2.0%
Cc1ccc(NC(=O)c2cccs2)cc1,12.8%
Cc1cccc(NC(=O)Cc2ccc(-c3ccccc3)cc2)n1,-6.8%
O=C(Nc1ccccc1Cl)O/N=C/c1ccc(F)cc1,-0.7%

# Next part.
SMILES,VDR inhibitor
COC(=O)c1ccccc1NC1OC(=O)c2ccccc21 (stereo unspecified),2.3%
O=Cc1cccn1-c1nccc(-c2ccco2)n1,13.6%
O=C(NN=Cc1ccccc1O)C1CC1,-1.8%
COc1ccccc1NS(=O)(=O)c1cc(NC(=O)c2cccs2)ccc1N1CCCC1,22.4µM*
COc1ccc(NC(=O)Cn2c(=O)sc3ccccc32)c(OC)c1,-0.9%
Cc1c(C(=O)N2CCOCC2)c(S(=O)(=O)N2CCN(c3ccc(Cl)cc3)CC2)c(C)n1C,-16.2%
CC(=O)c1ccc(NC(=S)N2CCN(CCO)CC2)cc1,17.1%
CC(=O)Cc1ccccc1OC(=O)c1ccco1,-11.1%
CCCCN(C(=O)c1cccc(S(=O)(=O)N2CC(C)OC(C)C2)c1)c1c(N)n(CC(C)C)c(=O)[nH]c1=O (stereo unspecified),-16.2%
COc1cccc(CN2CCN(C(=O)c3oc4c(F)cccc4c3C)CC2=O)c1,-14.4%
COc1ccccc1/C=C/C=N/n1c(-c2cc(C)[nH]n2)n[nH]c1=S,1.7%
Cc1cc(Nc2cc(Cl)cc(Cl)c2)nc(N)n1,-2.3%
CN(CC(=O)Nc1ccc(F)cc1)C(=O)CN1C(=O)NC2(CCCc3ccccc32)C1=O (stereo unspecified),0.7%
C=CCOc1c(OC)cc(/C=N/Nc2cccc(C(=O)O)c2)c(Br)c1Br,u
COc1ccc(CNC(=O)CCc2c(C)c3ccc(OC)c(C)c3oc2=O)cc1OC,5.1%
COc1ccc(C2=NOC(C3(S(=O)(=O)c4ccccc4)CC(O)C3)C2)cc1 (stereo unspecified),-13.8%
COCCNC(=O)c1sc2ncccc2c1-n1c(C)ccc1C,20.8%
COC(=O)C(=Cc1ccccc1[N+](=O)[O-])C(=O)OC,u
O=C1NC2(CCCCCC2)C(=O)N1Cc1ccc(Cl)cc1Cl,2.7%
Cc1cc(O)cc(=O)n1Cc1ccccc1,15.5%
CCSc1nnc(NC(=O)C2CCCCC2)s1,-5.4%
CN(C)c1ccc(C=Nc2ccc(N(C)C)cc2)cc1,u
CCc1c(C)c2cc(Cl)c(O)c(CN3CCCCC3)c2oc1=O,9.5%
O=c1c(C=NCc2ccccc2)c(NCc2ccccc2)nc2ccccn12,29.6%
O=C(NCCc1ccccc1)C1CCN(c2nc3ccccc3nc2C(F)(F)F)CC1,-6.8%

# Part of the list above in order of formula weight, rising:
SMILES,VDR inhibitor
O=C(NN=Cc1ccccc1O)C1CC1,-1.8%
O=Cc1cccn1-c1nccc(-c2ccco2)n1,13.6%
CC(=O)Cc1ccccc1OC(=O)c1ccco1,-11.1%
CN(C)c1ccc(C=Nc2ccc(N(C)C)cc2)cc1,u
Cc1cc(Nc2cc(Cl)cc(Cl)c2)nc(N)n1,-2.3%
CC(=O)c1ccc(NC(=S)N2CCN(CCO)CC2)cc1,17.1%
COCCNC(=O)c1sc2ncccc2c1-n1c(C)ccc1C,20.8%
CCc1c(C)c2cc(Cl)c(O)c(CN3CCCCC3)c2oc1=O,9.5%
COc1ccccc1/C=C/C=N/n1c(-c2cc(C)[nH]n2)n[nH]c1=S,1.7%
O=C1NC2(CCCCCC2)C(=O)N1Cc1ccc(Cl)cc1Cl,2.7%
COc1ccc(NC(=O)Cn2c(=O)sc3ccccc32)c(OC)c1,-0.9%
O=c1c(C=NCc2ccccc2)c(NCc2ccccc2)nc2ccccn12,29.6%
COc1ccc(C2=NOC(C3(S(=O)(=O)c4ccccc4)CC(O)C3)C2)cc1 (stereo unspecified),-13.8%
CN(CC(=O)Nc1ccc(F)cc1)C(=O)CN1C(=O)NC2(CCCc3ccccc32)C1=O (stereo unspecified),0.7%
COc1ccccc1NS(=O)(=O)c1cc(NC(=O)c2cccs2)ccc1N1CCCC1,22.4µM*
Cc1c(C(=O)N2CCOCC2)c(S(=O)(=O)N2CCN(c3ccc(Cl)cc3)CC2)c(C)n1C,-16.2%
CCCCN(C(=O)c1cccc(S(=O)(=O)N2CC(C)OC(C)C2)c1)c1c(N)n(CC(C)C)c(=O)[nH]c1=O (stereo unspecified),-16.2%

# The list goes on:
SMILES,VDR inhibitor
CCOC(=O)C(C)Sc1nnc(-c2ccccc2O)n1Cc1ccccc1 (stereo unspecified),4.6%
O=C1CN(C(=O)c2ccccc2F)C(c2ccc(F)cc2)c2cc(Br)ccc2N1 (stereo unspecified),-10.9%
O=C(Cc1ccccc1Cl)Nc1cccnc1,-2.4%
COc1ccc(-n2ncc3c2CC(C)(C)CC3NC(=O)CCN2CCCC2=O)cc1 (stereo unspecified),-4.0%
O=C(COC(=O)c1ccccc1)NC1CCCC1,-8.3%
CCC1=NN2C(=N)/C(=C\c3cccn3-c3ccc(Br)cc3)C(=O)N=C2S1,-12.2%
Clc1ccc(OCCn2ccnc2)c(Cl)c1,-8.3%
COCCN(Cc1cn(C)nc1-c1ccc(Oc2ccccc2)cc1)C(C)C,8.8%
O=C(CC1CCS(=O)(=O)C1)NC1CCCCC1 (stereo unspecified),-0.2%
Cc1cc2cc(CNC(=O)c3ccc4c(c3)OCO4)ccc2[nH]1,-10.0%
COc1ccc(NS(=O)(=O)c2ccc(NC(=O)CCNS(=O)(=O)c3ccc(C)cc3)cc2)cc1,-8.9%
CCOc1ccc(NS(=O)(=O)c2cc(C(=O)N3CCCC3)ccc2Cl)cc1,-12.2%
O=c1cc(CN2CCN(CCO)CC2)c2cc3c(cc2o1)CCC3,-10.0%
O=c1[nH]nc(N2CCOCC2)c(=O)[nH]1,u
COc1ccc(CN2CCn3ncc(C(=O)Nc4cccc(C)c4)c3C2=O)cc1,13.4%
CS(=O)(=O)N1CCN(CC(=O)NC2CCCC2)CC1,-5.7%
COC(=O)NC(Nc1sc2c(c1C(N)=O)CCCC2)(C(=O)OC)C(F)(F)F (stereo unspecified),-9.5%
O=C(/C=C/c1ccc(Cl)c([N+](=O)[O-])c1)NCc1cccnc1,13.5%
CCOC(=O)c1nc(Nc2cc(C)cc(C)c2)c2ccccc2n1,-0.7%
CCN1CCN(C(=S)Nc2cccc(C(F)(F)F)c2)CC1,-6.7%
COc1cc(/C=N/n2c(-c3ccccc3)n[nH]c2=S)ccc1O,-17.3%
Cc1c(C(=O)N(C)C)sc2c1c(=O)n(-c1ccc(Cl)c(Cl)c1)c(=O)n2CC(=O)C(C)(C)C,13.1%
Cc1cc(C)c(C(=O)N2CCCC(Nc3ccc(C)c(C)c3)C2)o1 (stereo unspecified),u
COc1cc(C)cc(OC)c1OCC(=O)Nc1cc(C)on1,u
Cc1cnc(C(=O)Nc2ccc(F)cc2)cn1,-17.3%
COc1cc(C(C[N+](=O)[O-])c2c(C)cc3ccccn23)ccc1O (stereo unspecified),-18.7%
Cc1ccccc1OCC(O)Cn1c(NCc2ccccc2)nc2c1c(=O)[nH]c(=O)n2C (stereo unspecified),-7.6%
O=C1/C(=C/c2ccsc2)CC/C1=C\c1cccs1,-18.5%
Cc1no[n+]([O-])c1COc1ccccc1/C=N/n1nnnc1N,3.8%

# Compound activity (PubChem BioAssay)
